Screening data (PubChem)
Tg IFNy HTS: T. gondii growth inhibition with IFN-gamma, primary screen, cell-based. Toxoplasma gondii growth in IFN-gamma-treated host cells; active compounds read low; reference of the scale not given here. activity change, negative = inhibition, %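 (about 20 µM by stock and volumes)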. 3.8% of 69,000 active;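 active means below -70%; inconclusive means fit judged invalid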;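 further: host cells are HeLa cells infected with Toxoplasma gondii; parasite growth read as luciferase light; one replicate is shown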
Numbers without * were called inactive; i = inactive; u = inconclusive; & = joins results of further samples.

SMILES	Tg IFNy HTS
Cc1noc(C)c1S(=O)(=O)N(C)C[C@H]1OCCCC[C@H](C)Oc2ccc(NS(=O)(=O)c3cn(C)cn3)cc2C(=O)N([C@@H](C)CO)C[C@@H]1C	-54
COc1ccc(CCN(Cc2nc3ccccc3c(=O)[nH]2)C(=O)c2ccco2)cc1	-6
COc1ccc(Cl)cc1Nc1nc(C)cc(C)c1C#N	-79*
Cc1ccc(S(=O)(=O)N(C)C[C@H]2OCCCC[C@@H](C)Oc3ccc(NC(=O)c4ccncc4)cc3C(=O)N([C@@H](C)CO)C[C@@H]2C)cc1	376
COc1ncc(CN2C[C@H](N)C[C@H]2C(=O)NC(C)C)cn1	5
CC(C)CC(=O)N1CCC[C@@]2(C(=O)N(C)C)CN(c3ccccn3)C[C@H]2C1	4
COCCC(=O)Nc1ccc2c(c1)CCC(=O)N2C	29
CSc1cccc(Nc2nc(-c3nnc(-c4ccccc4)o3)nc3ccccc23)c1	-19
Cc1nc(CN2C(=O)C[C@H]3[C@H]2CCN3C(=O)c2ccoc2)cs1	131
O=C(c1cnn2ccccc12)N1CCC(n2cc(-c3ccccn3)nn2)CC1	-9
O=C(Sc1ccc(Cl)cc1)c1ccc(-c2cccs2)s1	-104*
C=CCO[C@@H]1CN(C(=O)Cc2ccsc2)[C@H]2CCCO[C@@H]12	-26
CN(Cc1cc(C2CC2)n[nH]1)C(=O)c1cnn2ccn(C)c12	19
N#Cc1ccc(OCC23COCC2CN(C(=O)Cc2ccco2)C3)nc1 (stereo not drawn)	-13
Cc1occc1C(=O)N1C[C@@H]2COC[C@@]2(COc2ccc(C#N)cn2)C1	3
CCOc1ccc(Cc2cc([C@@H]3O[C@H](SC)[C@@H](O)[C@H](O)[C@H]3O)ccc2Cl)cc1	35
CC(CC12CC3CC(CC(C3)C1)C2)NC(=O)CNC(N)=O (stereo not drawn)	7
CN1CCC2(CCC1=O)CCN(C(=O)c1cnc(-c3cccnc3)nc1)CC2	6
O=C(CSc1ncnc2nc[nH]c12)Nc1nc2ccccc2s1	69
Cc1nc(C)c(C(=O)N2C[C@H]3OC(=O)N(CCc4ccccn4)[C@H]3C2)s1	7
COc1cccc(-c2nc3c(s2)CN(S(=O)(=O)c2ccc(C(C)C)cc2)CC3)c1	-37
CC(=O)N1CC(c2cnc(-c3ccccc3)c(C)c2)C=C(C)C1c1ccccc1 (stereo not drawn)	175
Cc1ncc(CSc2ccccn2)c(CO)c1O	-24
S=C(NCc1ccccc1)Nc1nccs1	-44
CSCCC(NC1=NCCN1)C(=O)O (stereo not drawn)	291

(further entries)
SMILES	Tg IFNy HTS
CC(C)(C)c1nc(CN2CCCCC2c2ccccn2)no1 (stereo not drawn)	2
c1ccc(-c2nnc(-c3nc(NCc4ccco4)c4ccccc4n3)o2)cc1	i
Cc1cnc(C(=O)N2CCC3(CC2)CC(=O)Nc2ccccc23)cn1	-6
COc1ccccc1-c1ccc2c(c1)[C@H]1[C@H](CCN1C(=O)CN1CCOCC1)[C@H](CO)N2C	94
Cc1cccc(-c2nc(C)c(CCNC(=O)C(=O)Nc3cccc(F)c3)s2)c1	35
O=C(Nc1ccccc1F)N[C@@H]1CC[C@@H](CCNC(=O)C2CC2)O[C@@H]1CO	-26
Cc1ccc(NC(=O)CNC[C@H]2CCc3ccccc3O2)c(C)c1	10
Cc1ccc(NC(=O)c2nc(Nc3ccccc3)c3ccccc3n2)cc1F	15
COc1ccc(C(=O)N2CC[C@@H](c3ccc4ccccc4c3)[C@H](O)C2)o1	6
CC(=O)N1CCC(C(=O)NCc2ccccc2)(N(CCc2ccccc2Cl)C(=O)c2ccc(C)cc2)CC1	3
Cc1ccc2oc(=O)n(CCC(=O)N3[C@@H]4CC[C@H]3CNC(=O)C4)c2c1	-11
COc1ccc(-c2nc(C)c(CCNS(=O)(=O)c3ccc(I)cc3)s2)cc1	i
O=C(c1ccccc1)N1[C@H](CO)[C@H](c2ccccc2)C12CN(Cc1nccs1)C2	-43
CN(C)C=C1C(c2ccccc2)=C(c2ccccc2)C(c2ccccc2)=C1c1ccccc1	41
CN1C[C@H](O)COC[C@@H]2O[C@H](CC(=O)NC3CCCC3)CC[C@H]21	-23
O=C1CCc2cc(S(=O)(=O)NCc3ccccc3Cl)cc3c2N1CC3	-18
COc1c(C)cccc1CN1CCC(c2nnc3n2CCN(C(C)=O)CC3)CC1	10
CCc1c(-c2nc(CCN(C)C(=O)c3cccn3C)no2)[nH]c2ccc(C)cc12	-91*
CO[C@H]1CC[C@@H]2CCOc3c(C#N)cccc3C(=O)N(C)C[C@@H](OC)[C@H](C)C(=O)N(C)C[C@H]1O2	1
O=C(C[C@H]1CC[C@H]2[C@@H](COC[C@@H](O)CN2C(=O)c2cnccn2)O1)N1CCN(c2ccccc2)CC1	31
CN(Cc1ccc2ccccc2n1)C(=O)c1ccc(CSc2ncn[nH]2)o1	-13
CC(C)COC(=O)N(C)C[C@H]1OCc2ccccc2-c2ccccc2C(=O)N([C@H](C)CO)C[C@H]1C	-45
COc1ccc(-c2nc3c(s2)CN(C(=O)Nc2ccc(Cl)cc2)CC3)cc1OC	-38
CCC1=NOC(CN2CCOc3c(O)cc(-c4nc(C)cnc4C)cc3C2)C1 (stereo not drawn)	3
Cn1nc(C(=O)NCc2nnc(-c3ccccc3)o2)cc1-c1ccc(Cl)cc1	-31

Laid out differently: entries from further up.
Compound,Tg IFNy HTS
O=C1CCc2cc(S(=O)(=O)NCc3ccccc3Cl)cc3c2N1CC3,-18
COc1c(C)cccc1CN1CCC(c2nnc3n2CCN(C(C)=O)CC3)CC1,10
CCc1c(-c2nc(CCN(C)C(=O)c3cccn3C)no2)[nH]c2ccc(C)cc12,-91*
CO[C@H]1CC[C@@H]2CCOc3c(C#N)cccc3C(=O)N(C)C[C@@H](OC)[C@H](C)C(=O)N(C)C[C@H]1O2,1
O=C(C[C@H]1CC[C@H]2[C@@H](COC[C@@H](O)CN2C(=O)c2cnccn2)O1)N1CCN(c2ccccc2)CC1,31

(continued)
SMILES	Tg IFNy HTS
Cn1c(SCc2ccccc2)nnc1C1CCCN1S(C)(=O)=O (stereo not drawn)	-40
C[C@@H]1CN([C@@H](C)CO)C(=O)c2c(c3ccccc3n2C)-c2ccccc2CO[C@@H]1CN(C)C	-18
O=C1NCC2(CCCN(C(=O)c3cc(-c4ccccc4)nc4ccccc34)C2)O1 (stereo not drawn)	2
CN(C)Cc1cc(=O)n2c(n1)CN(Cc1ccoc1)CCC2	27
COc1ccc2c3c(n(C)c2c1)[C@H](CO)N(CC1CCOCC1)CC31CN(Cc2nccs2)C1	3
COCC(=O)Nc1cccc(-c2cccc(OC)c2F)c1	44
CC(C)n1c2ccccc2c2c1cc(C(=O)NCCC#N)n2-c1ncccn1	14
CCCc1cnc(N2CCN(S(=O)(=O)c3cn(C)cn3)CC2)nc1	69
CCN1CCCC1CNC(=O)C1=C(C)C(=O)OC12CCN(C(C)=O)CC2 (stereo not drawn)	-1
COCCN1CCC(C(=O)N(C)Cc2nc3ccccc3s2)C1 (stereo not drawn)	0
O=C(C1CCC1)N1CCCCN2[C@H](C1)[C@H](c1ccc(-c3ccncc3)cc1)[C@@H]2CO	3
CCn1c(=O)c(-c2nc(-c3cccc(Cl)c3)no2)c(O)c2ccccc21	39
Cn1cccc1C(=O)N1CCCC2(CC(Nc3ccccn3)CO2)C1 (stereo not drawn)	5
CC[C@@H](NC(=O)N[C@H]1C[C@H]2C(=O)NCC(=O)N2C1)c1ccccc1	-6
CSc1ccc(C2c3[nH]c4ccccc4c3CCN2C(=O)c2ccccc2Br)cc1 (stereo not drawn)	35
CCCCNC(=O)c1ccc(Cl)cc1O	u
O=C1CCN(Cc2ccccc2)CCN1CCc1noc(CSc2ncn[nH]2)n1	56
Cc1cc(C)cc(NC(=O)c2c(O)c3cccnc3n(-c3ccc(F)cc3)c2=O)c1	56
CC(C)[C@H]1C(=O)N[C@@H](c2ccc(F)cc2)CC=CC[C@H](C)Oc2ccccc2C(=O)N1C (mixture of isomers)	5
CCN(CC)c1ccc2cc(-c3nnc(-c4ccccc4)o3)c(=O)oc2c1	63
C=CCOC1C2CCC1N(C(=O)c1cccn1C)C2 (stereo not drawn)	-67
C[C@H](CO)N1C[C@H](C)[C@@H](CN(C)CC2CCCCC2)OCc2cnnn2CCCC1=O	91
O=C(NN1C(=O)CSC1=S)c1ccccc1	-56
Cc1ccc(-c2nc(C)c(CCNS(=O)(=O)c3ccc4c(c3)OCCO4)s2)cc1	7
CCOc1ccc(C(=O)CCc2nc3ccccc3s2)cc1	11

Further compounds follow:
SMILES	Tg IFNy HTS
O=C(Oc1ccccc1)c1ccc(Oc2ccc(C(=O)Oc3ccccc3)cc2)cc1	-31
CN1CCCN(C(=S)NCCCN2CCOCC2)CC1	33
O=C(C[C@H]1CC[C@H]2[C@@H](COC[C@H](O)CN2C(=O)Nc2ccc(Cl)cc2)O1)NCC1CCCCC1	6
CN(C)c1ccc(CNC(=O)c2nc(Nc3ccccc3)c3ccccc3n2)cc1	-70
CCN(CC)c1ncnc2c1cnn2CC(=O)NCc1cc(F)cc(F)c1	32
CCCN(c1ccc(C)cc1)c1nc(=O)c2cccnc2s1	-41
Nc1ccc(-c2nc3ccc(-c4nc5ccc(N)cc5[nH]4)cc3[nH]2)cc1	5&21
COC(=O)c1csc(S(=O)(=O)N2CCCCC2)c1OC	-30
COc1ccccc1-c1nc(CN(c2ccccc2OC)S(=O)(=O)c2ccccc2)c(C)o1	13
O=C(Nc1nccs1)c1cccc2c1-c1ccccc1C2	-7
Cc1cc(=O)oc2c(CN(C)Cc3ccccc3)c(O)ccc12	11
CCCC(=O)N1CCC(c2[nH]ncc2-c2ccnc(CCC)n2)CC1	-29
Cc1ccc2oc(CN3CCOC(CN)C3)c(C)c2c1 (stereo not drawn)	-3
Cc1ccc(-c2nc(C)c(CCNC(=O)C(=O)Nc3ccc([N+](=O)[O-])cc3)s2)cc1	365
CCOC(=O)C(=Cc1ccccc1OC)C(=O)OCC	-3
COCC1CN(Cc2cc(C)on2)Cc2cn(C)nc21 (stereo not drawn)	-66
COc1ccc2c(c1)NC1(CCN(S(=O)(=O)c3cc(C)cc(C)c3)CC1)c1cccn1-2	-8
N[C@@H]1c2ccccc2C2(CCN(C(=O)CCc3ccccc3F)CC2)[C@H]1O	-9
O=C(c1cscn1)N1CCc2ncnc(-c3ccc(F)cc3)c2CC1	-6
Cc1ncc(C)c(N2CCC(CO)(Cc3cccc(C(F)(F)F)c3)CC2)n1	-24
Cc1onc(-c2c(Cl)cccc2Cl)c1C(=O)Sc1ncccc1C(F)(F)F	35
Cc1ccnc(NS(=O)(=O)c2ccc(Cl)c(Cl)c2)c1	7
CCN1c2cc(Cl)ccc2C(=O)NC12CCN(C(=O)NCc1cccc(F)c1)CC2	135
C[C@H](CO)N1C[C@H](C)[C@H](CN(C)C(=O)NC2CCCCC2)OCCCC[C@H](C)Oc2ccc(N(C)C)cc2C1=O	220
O=C(CC1C2CCCC1CNC2)NCc1ccco1 (stereo not drawn)	6

Some of the entries so far, field by field.
> COC(=O)c1csc(S(=O)(=O)N2CCCCC2)c1OC
  Tg IFNy HTS: -30

> Cc1ccnc(NS(=O)(=O)c2ccc(Cl)c(Cl)c2)c1
  Tg IFNy HTS: 7

> Cc1onc(-c2c(Cl)cccc2Cl)c1C(=O)Sc1ncccc1C(F)(F)F
  Tg IFNy HTS: 35

The main list resumes, repeating the seven entries before the break.
SMILES	Tg IFNy HTS
O=C(c1cscn1)N1CCc2ncnc(-c3ccc(F)cc3)c2CC1	-6
Cc1ncc(C)c(N2CCC(CO)(Cc3cccc(C(F)(F)F)c3)CC2)n1	-24
Cc1onc(-c2c(Cl)cccc2Cl)c1C(=O)Sc1ncccc1C(F)(F)F	35
Cc1ccnc(NS(=O)(=O)c2ccc(Cl)c(Cl)c2)c1	7
CCN1c2cc(Cl)ccc2C(=O)NC12CCN(C(=O)NCc1cccc(F)c1)CC2	135
C[C@H](CO)N1C[C@H](C)[C@H](CN(C)C(=O)NC2CCCCC2)OCCCC[C@H](C)Oc2ccc(N(C)C)cc2C1=O	220
O=C(CC1C2CCCC1CNC2)NCc1ccco1 (stereo not drawn)	6
CCc1nc(OCC(=O)Nc2ccc(OC)cc2OC)c2ccccc2n1	12
Cc1ccc(S(=O)(=O)N2C[C@H]3[C@@H](c4ccccc42)[C@H](CO)N3Cc2cccnc2)cc1	-6
Cc1ccncc1C(=O)N1CCCC2(CC1)CCN(CC1CC1)C2=O (stereo not drawn)	-4
COc1ccccc1-c1nc(Cn2nnc(-c3nc(-c4ccc(Cl)cc4)no3)c2C)c(C)o1	-15
CCN1C[C@@H]2C[C@H](C(=O)NCc3ccccc3)[C@@H](C1)O2	26
Cc1ccccc1OC1CN(C(=O)CCN2CCCO2)C1	4
COc1ccc(C2CCCN2C(=O)Cn2nc(C(F)(F)F)c3c2CCCC3)cc1 (stereo not drawn)	-34
O=S(=O)(c1ccc(Cl)cc1)c1cn[nH]c1-c1ccc(Cl)cc1	-31
Cc1nc(C2CCCCN2Cc2cc(Cl)c3c(c2)OCCCO3)ncc1C(=O)N(C)C (stereo not drawn)	-56
CN(Cc1ccno1)C(=O)CC1COCCN1 (stereo not drawn)	3
COc1cc(OC)cc(C(=O)N2CCC3(CC2)Nc2ccc(C)c(C)c2-n2cccc23)c1	19
N#Cc1cccc(CN2CCn3cc(CNC(=O)C4CCC4)nc3C2)c1	2
CN(C)c1cnc(-n2cc(NS(=O)(=O)c3ccc(C4CCCCC4)cc3)cn2)nc1	21
COc1cc(C)c(-c2ccc(Cn3ccnc3)cn2)c(C)c1	29
O=C(c1ccco1)N1CCC2(CCCN(Cc3nccs3)C2)C1 (stereo not drawn)	1
C=CCN(Cc1cccc(OC)c1)C(=O)c1cc2cccnc2nc1C	72
O=C1CCCN1c1ccc(S(=O)(=O)Nc2ccc(Oc3cccnc3)cc2)cc1	-68
Cn1c(=O)c(-c2nc(-c3ccc(Br)cc3)no2)c(O)c2cc(F)ccc21	9
CC(C)C1=NOC(CC2(C(=O)O)CCOCC2)C1 (stereo not drawn)	-15

Only part of the results is shown; count on the stated rates, not on these rows.
